UCH37 inh – human UCH37 deubiquitinating enzyme inhibition; Q9Y5K5; purified proteasome/UCH37, Ub-AMC cleavage fluorescence; inhibition, % (concentration not given with the values); 330,000 tested, 0.33% active;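 active = mean of two replicates above 20%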;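 also: 0% = compound-free wells with enzyme and 100% = wells lacking proteasome; stock transfer was 100 nL into about 20 µL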
Target sequence (Q9Y5K5 whole entry, looked up): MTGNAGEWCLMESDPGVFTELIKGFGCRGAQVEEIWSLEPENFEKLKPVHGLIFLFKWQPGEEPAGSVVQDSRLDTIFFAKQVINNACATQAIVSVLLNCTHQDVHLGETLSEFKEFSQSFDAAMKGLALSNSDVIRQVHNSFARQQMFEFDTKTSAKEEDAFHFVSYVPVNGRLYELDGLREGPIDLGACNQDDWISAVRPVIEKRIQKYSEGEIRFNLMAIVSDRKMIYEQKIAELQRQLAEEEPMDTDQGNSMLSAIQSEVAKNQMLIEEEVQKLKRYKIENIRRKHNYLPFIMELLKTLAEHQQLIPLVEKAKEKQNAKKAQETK
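Signal – fluorescence, ex 355 nm, em 460 nm · System – Proteasome-bound UCH37 · Input – 0.15 nM proteasome as dispensed · Timing – 30 min preincubation with enzyme, 25 min cleavage at room temperature · Read-out basis – percent inhibition of cleavage signal versus uninhibited and no-proteasome wells · Medium – Tris-HCl pH 7.4 with ATP-MgCl2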
* marks the source's active call; other numbers are inactive results. Some of the compounds tested; the hit share may differ from the screen's.

UCH37 inh	Structure
9.3	Cc1ccc(C=c2sc3nc(-c4ccccc4Br)nn3c2=O)o1
5.9	O=C(NN=Cc1cccnc1)c1ccc(NC(=O)c2cccc(Cl)c2)cc1
4.7	O=C(NN=Cc1cccnc1)c1[nH]ncc1Br
3.4	NC(Cc1ccc([N+](=O)[O-])cc1)=NOC(=O)CC1CCCCC1
-0.6	COc1ccc(C=NNC(=O)CCN2CCN(c3ccccc3)CC2)c(OC)c1OC
7.5	NC(=S)NN=C1c2ccccc2-c2c(C(=O)O)cccc21
5.3	Cc1ccc(C=NNC(=O)c2cc(-c3ccncc3)nc3ccccc23)o1
6.3	O=C(C(=NNc1ccc([N+](=O)[O-])cc1)Sc1nnnn1-c1ccccc1)c1ccccc1
3.2	Cc1[nH]c2ccccc2c1C=NNC(=O)CNC(=O)c1ccc2c(c1)OCO2
8.1	Cc1ccc(S(=O)(=O)NN=Cc2ccccc2O)cc1
0.1	CC(Cc1ccccc1)=NNC(=O)CNC(=O)c1cccc(F)c1
-0.2	Cc1ccccc1C(=O)Nc1ccc(C(=O)NN=Cc2ccncc2)cc1
-0.1	COc1cc(C=Nn2c(-c3ccc4c(c3)NC(=O)CO4)csc2=Nc2cccc(C)c2)ccc1O
8.1	Oc1ccccc1C=N[n+]1ccccc1
4.1	O=C(NN=Cc1cc([N+](=O)[O-])ccc1Cl)c1ccc2nc[nH]c2c1
1.7	O=C(NN=Cc1cccnc1)c1ccc2c(c1)OCCO2
2.9	COC(=O)NN=Cc1cc(Cl)c(OCc2ccc(F)cc2)c(OC)c1
-16.0	CN(C)c1ccc(C=NNC(=O)CCc2c[nH]c3ccccc23)cc1
11.7	Cc1cc(C=NNC(=O)c2ccncc2)c(C)n1-c1ccccc1
4.6	COc1ccc(C=NNC(=O)c2cccc3ccccc23)c(OC)c1OC
-0.2	CCOC(=O)NN=Cc1cn(CCCOc2ccccc2)c2ccccc12
4.9	O=C(NN=C(c1ccccc1)c1cccnc1)C(O)(c1ccccc1)c1ccccc1
2.4	CCSC(C)CC1CC(=NO)c2c(CC)noc2C1 (stereo not given)
5.4	Cc1ccc(C(=O)ON=CC2=C(Cl)c3ccccc3CC2)cc1
2.9	COc1cccc(C=NN2CCN(c3ccc(Cl)cc3)CC2)c1OC
2.0	COc1ccc(NN=C(C#N)S(=O)(=O)c2nsc(C)c2C#N)cc1
5.6	C=CCOc1c(Cl)cc(C=NO)cc1OC
2.3	Cc1nc2c(C)cccc2cc1C(=O)NN=Cc1cccc([N+](=O)[O-])c1
0.6	CCc1ccc(C=NNC(=O)c2ccc(OC3CCCC3)cc2)s1
24.6*	O=C(NN=C/C=C/c1ccco1)c1cnccn1
0.5	CC(=NNC(=O)c1cccc([N+](=O)[O-])c1)c1cccnc1
-0.4	COc1ccc(C(=O)NN=Cc2ccc(OC)c(COc3ccc(F)cc3F)c2)cc1
-283.7	COc1ccc(OC)c(C=NNC(=O)c2[nH]nc3c2CCc2ccccc2-3)c1
-3.6	COc1cccc(C=NNC(=O)CNC(=O)C2COc3ccccc3O2)c1O (stereo not given)
4.7	CCCN(CCC)Cc1c(C(=O)NN=Cc2ccc(Br)cc2)nnn1-c1nonc1N
6.3	S=c1[nH]nc(COc2ccccc2)n1N=Cc1ccccc1Cl
4.0	CC1CC(=NNC(=O)c2cccc(F)c2)c2ccc(O)cc2C1 (stereo not given)
3.5	Cc1ccc(C(C)C)c(OCc2ccc(C(=O)NN=Cc3ccc(O)cc3O)cc2)c1
9.6	CCOc1cc(C=NNC(=O)C(=O)NC2CC2)cc(Br)c1O
3.7	COc1ccccc1NC(=O)COc1ccc(C=NNS(=O)(=O)c2ccc(C)cc2)cc1
2.0	CCCc1c(C(=O)NN=Cc2cccnc2)nnn1-c1nonc1N
9.7	Oc1ccc(C=NNc2cc(N3CCOCC3)nc(N3CCOCC3)n2)cc1
17.1	COc1cc(C=NNC2=NS(=O)(=O)c3ccccc32)cc(OC)c1OC
7.5	O=C(NN=Cc1ccc2ncccc2c1)c1ccco1
-0.5	COc1ccc(C(=O)NN=C(C)CC(=O)Nc2ccc(Cl)cn2)cc1
-2.8	CCc1n[nH]c(=S)n1N=Cc1ccc(-c2ccc(Br)cc2)o1
3.9	CC(=O)Nc1ccccc1NC(=O)CC(C)=NNC(=O)c1cccnc1
8.0	CC12CCC(C(=O)N(CSC(=S)NN=Cc3ccccc3O)C1=O)C2(C)C (stereo not given)
2.0	CC1CCCC(C)N1N=Cc1ccc(Cl)cc1 (stereo not given)
-12.6	COC(=O)NN=Cc1ccc(-c2cc(Cl)ccc2Cl)o1
0.4	CC(=NNC(=O)Cc1ccc(Cl)cc1)c1ccccn1
-9.2	COc1ccc2[nH]c(C(=O)NN=Cc3ccccc3OC)cc2c1
3.0	CON=C(Cn1ncc(N2CCCC2)c(Br)c1=O)c1ccc(Cl)cc1
2.8	O=C(CN1CCN(Cc2ccc(Cl)cc2)CC1)NN=Cc1ccccc1F
1.2	CC(=NNC(=O)c1ccc(-c2ccccc2)cc1)c1cccc(N)c1
1.2	CC(=NNC(=O)CC(C)C)c1ccc(Cl)c(Cl)c1
2.7	O=[N+]([O-])c1cc2c(cc1C=Nn1c(-c3ccccc3)n[nH]c1=S)OCO2
8.2	O=C(CSc1nnc(SCc2ccc(Cl)cc2)s1)NN=Cc1c[nH]c2ccccc12
6.5	O=c1c2ccccc2nc(-c2ccco2)n1N=Cc1ccccc1O
8.6	CN(C)N=Cc1ccc([N+](=O)[O-])cc1[N+](=O)[O-]

Further records follow:
UCH37 inh	Structure
2.0	COc1ccc(CC(C)=NNC(=O)c2c[nH]c3ccccc23)cc1OC
1.7	C(=NNc1nc2ccccc2[nH]1)c1ccccn1
-1.4	O=C(NN=Cc1c[nH]c2ccc(Br)cc12)c1ccn(Cc2ccc(Cl)cc2Cl)n1
3.5	CC(=NNC(=O)c1ccc(Cn2cc(Br)cn2)o1)c1cccc(NC(=O)C(C)(C)C)c1
40.4*	Cc1ccc(C(=O)ON=Cc2ccc(N3CCCCC3)c([N+](=O)[O-])c2)cc1
-2.1	COc1ccc(C(C)=Nn2cnnc2)cc1
9.8	COc1cc(C=NNc2ccccc2[N+](=O)[O-])ccc1OC(=O)c1ccccc1F
4.2	COC(=O)NN=Cc1c(C)c(C(=O)c2ccc(F)cc2)n2ccccc12
5.3	CCOC(=O)c1c(-c2ccccc2)csc1NC(=O)/C(C#N)=C\c1ccc(O)c(OC)c1
3.5	CC(=NOCC(=O)Nc1cc(C)cc(C)c1)c1ccc2c(c1)OCCO2
8.0	Nc1c(Cl)ncnc1NN=Cc1ccnc2ccccc12
6.5	O=C(COc1ccc(C=NNC(=O)c2ccccc2Br)cc1)Nc1ccccc1
7.0	CC(=NNc1nc(N2CCCCC2)nc(N2CCOCC2)n1)c1cccs1
0.5	Clc1ccc(C=NN2CCN(Cc3ccccc3)CC2)cc1
6.5	O=S(=O)(NN=Cc1ccc2c(c1)OCCO2)c1ccccc1

15 entries out of the list, sorted by SMILES length, low to high:
UCH37 inh	Structure
-2.1	COc1ccc(C(C)=Nn2cnnc2)cc1
1.7	C(=NNc1nc2ccccc2[nH]1)c1ccccn1
8.0	Nc1c(Cl)ncnc1NN=Cc1ccnc2ccccc12
0.5	Clc1ccc(C=NN2CCN(Cc3ccccc3)CC2)cc1
6.5	O=S(=O)(NN=Cc1ccc2c(c1)OCCO2)c1ccccc1
6.5	O=c1c2ccccc2nc(-c2ccco2)n1N=Cc1ccccc1O
7.0	CC(=NNc1nc(N2CCCCC2)nc(N2CCOCC2)n1)c1cccs1
2.0	COc1ccc(CC(C)=NNC(=O)c2c[nH]c3ccccc23)cc1OC
3.5	CC(=NOCC(=O)Nc1cc(C)cc(C)c1)c1ccc2c(c1)OCCO2
4.2	COC(=O)NN=Cc1c(C)c(C(=O)c2ccc(F)cc2)n2ccccc12
8.2	O=C(CSc1nnc(SCc2ccc(Cl)cc2)s1)NN=Cc1c[nH]c2ccccc12
9.8	COc1cc(C=NNc2ccccc2[N+](=O)[O-])ccc1OC(=O)c1ccccc1F
40.4*	Cc1ccc(C(=O)ON=Cc2ccc(N3CCCCC3)c([N+](=O)[O-])c2)cc1
-1.4	O=C(NN=Cc1c[nH]c2ccc(Br)cc12)c1ccn(Cc2ccc(Cl)cc2Cl)n1
5.3	CCOC(=O)c1c(-c2ccccc2)csc1NC(=O)/C(C#N)=C\c1ccc(O)c(OC)c1

Next section
UCH37 inh	Structure
2.5	CC(=NNC(=O)c1ccc2c(c1)OCO2)c1cccnc1
1.1	CCCCNC(=S)NN=Cc1sccc1C
-0.5	COc1cccc(C=NNC(=S)NCc2ccco2)c1OC
-0.3	C/C(C=NNC(=O)Cc1cc(=O)[nH][nH]1)=C\c1ccccc1
4.7	COc1ccc(CC(=NOC(C)=O)c2ccc(OC)cc2)cc1
4.9	Clc1ccccc1CN1CCN(N=Cc2ccncc2)CC1
-1.0	Cc1ccc(C=Nc2sc3c(c2C#N)CCCCC3)o1
5.6	O=C(NN=Cc1ccc(Br)o1)c1ccc2c(c1)OCCO2
-37.8	CN(C)c1ccc(C=NNC(=O)c2nnn(-c3nonc3N)c2COc2ccc(F)cc2)cc1
3.9	Cn1c(=O)c2c(ncn2CC(=O)NN=Cc2ccc(Br)s2)n(C)c1=O
11.5	O=C1N/C(=N\N=Cc2cccs2)SC1Cc1ccc(Cl)cc1Cl (stereo not given)
0.3	Cc1cc(C=NNc2nc(N3CCOCC3)nc(N3CCOCC3)n2)c(C)n1-c1ccccc1
-31.5	COc1ccc(NS(=O)(=O)c2cccc(C(=O)NN=Cc3ccc(O)cc3)c2)cc1
2.8	C[C@]12CCC(O)CC1=CCC1C2CC[C@]2(C)C(=NNC(N)=S)CCC12 (stereo not given in full)
4.4	Nc1nnnn1N=Cc1ccco1
0.0	CN(C)Cc1c(C(=O)NN=Cc2ccc(OCc3c(F)cccc3Cl)cc2)nnn1-c1nonc1N
2.4	CC(/C=C/c1ccccc1)=NNC(=O)c1cccc(Br)c1
-0.3	COc1cc(C=NNC(=O)Cc2csc(C)n2)ccc1OCC(C)C
5.4	COc1ccc2ccccc2c1C=NNC(=O)c1ccc([N+](=O)[O-])cc1
5.3	O=C(NN=Cc1ccco1)c1cccc(NC(=O)c2ccccc2Cl)c1
-2.0	CC(CCc1ccc2c(c1)OCO2)=NNC(=O)c1ccc(C)cc1C
2.1	CC(C)[C@H](N)C(=O)NC[C@H](CC(=O)NCC1CCC(C(=O)O)CC1)c1ccc(Cl)cc1 (stereo not given in full)
-4.3	COc1ccccc1C=Nn1nnnc1N
2.6	CC(C)Oc1ccc(C=NNC(=O)c2nnn(-c3nonc3N)c2CN(C)C2CCCCC2)cc1
2.5	CC(=O)N(N=Cc1ccc([N+](=O)[O-])o1)c1nc2ccccc2c(=O)n1-c1ccccc1
-79.3	CCOc1ccc(C=NNC(=O)c2cc3c(OC)cc(OC)cc3[nH]2)cc1OC
5.8	COc1cccc(C=Nn2c(-c3cccs3)n[nH]c2=S)c1
6.1	Cc1ccc(C=Nn2c(COc3ccccc3)n[nH]c2=S)s1
12.4	C(=NNc1ncnc2ccccc12)c1ccccc1
-0.1	Cc1cccc(N2C(=O)CSC2=NNC(=O)c2ccc(Br)cc2)c1C
0.0	Cc1cccc(NC(=O)C2CC(=O)N/C(=N/N=Cc3ccco3)S2)c1 (stereo not given)
0.5	O=C(CSc1nnc(-c2ccc(Cl)cc2)n1-c1ccccc1)NN=Cc1ccccc1C(=O)O
2.3	Cc1ccc(OCC(=O)NN=Cc2cccc3cccnc23)cc1
3.5	COc1ccccc1C=NNC(=O)c1ccccc1Cl
2.5	Cc1ccc(CSc2nnc(SCC(=O)NN=Cc3ccccc3OCC(=O)O)s2)cc1
7.8	CSc1ccc(C=NNc2nc(C)cc(=O)[nH]2)cc1
5.7	CC(=NNC(=O)C1CCCCC1)c1ccc([N+](=O)[O-])cc1
3.6	NC(=O)COc1cccc(C=NNC(=O)c2ccc(-n3cccc3)cc2)c1
9.5	O=C(NN=Cc1ccc(O)c([N+](=O)[O-])c1)C1CC1(c1ccccc1)c1ccccc1 (stereo not given)
6.1	O=C(NN=Cc1cccc(Oc2ccccc2)c1)c1ccccc1Br
-219.6	COc1ccc(C=NNC(=O)c2[nH]nc3c2CCc2ccccc2-3)cc1OC
3.4	O=C(COc1ccc(C=NNC(=O)c2ccc(O)cc2)cc1)Nc1ccc([N+](=O)[O-])cc1
0.5	O=C(CON=Cc1ccccc1)Nc1ccccc1C(=O)N1CCOCC1
-0.2	COc1cc(C=Nn2c(C)n[nH]c2=S)ccc1OCc1ccc(F)cc1
7.3	CC(=NNC(=O)c1ccc2c(c1)OCO2)c1ccc(NC(=O)C(F)(F)F)cc1
4.7	CCOc1ccc(C=NNC(=O)c2ccc(Cn3cc(Br)cn3)o2)cc1
-2.7	CCOC(=O)C1=C(C)N=c2sc(=Cc3cccn3C)c(=O)n2C1c1cccc(OC)c1OC (stereo not given)
5.2	CCOC(=O)NN=Cc1ccc(OC(=O)c2ccc3c(c2)OCO3)cc1
3.8	CCOC(=O)NC(=O)C(C#N)=NNc1ccc(F)cc1
5.9	CC(=NNC(=O)Cc1cccc2ccccc12)c1cccs1
1.7	COCCNC(=S)NN=C(C)c1ccc(Cl)c(Cl)c1Cl
4.7	CC(=NN1CCN(C)CC1)c1ccc(OC(F)F)cc1
0.9	Fc1ccccc1COc1cccc(C=Nn2cnnc2)c1
6.8	O=C(NN=Cc1cccs1)c1n[nH]c2c1CCC2
2.9	O=C(NN=Cc1ccc(OC(=O)c2ccccc2Cl)cc1)c1ccc(O)cc1
-1.7	CC(=NNC(=O)c1ccccc1)c1ccccc1Br
3.0	O=C(NN=Cc1cccc2ccccc12)c1cc(C2CC2)[nH]n1

Source: PubChem BioAssay
